AmpC nodet inh: AmpC beta-lactamase inhibition, detergent-free assay | AmpC nitrocefin hydrolysis, absorbance 480 nm, no detergent; potencies from a single point are estimates | Potency, µM (series often up to 28.7 µM), inactives show at the highest dose activity change, negative = inhibition | actives 1.8% (n = 71,000) | AID 585; active = falling curve, for most hits resting on a single point; inconclusive = weak or doubtful change; inactive = flat or rising curve; note: % of control where 0% means no effect; about half of the hits show no inhibition at the top dose; a quarter of the inactives give rising signals
Target sequence (P00811 whole entry, looked up): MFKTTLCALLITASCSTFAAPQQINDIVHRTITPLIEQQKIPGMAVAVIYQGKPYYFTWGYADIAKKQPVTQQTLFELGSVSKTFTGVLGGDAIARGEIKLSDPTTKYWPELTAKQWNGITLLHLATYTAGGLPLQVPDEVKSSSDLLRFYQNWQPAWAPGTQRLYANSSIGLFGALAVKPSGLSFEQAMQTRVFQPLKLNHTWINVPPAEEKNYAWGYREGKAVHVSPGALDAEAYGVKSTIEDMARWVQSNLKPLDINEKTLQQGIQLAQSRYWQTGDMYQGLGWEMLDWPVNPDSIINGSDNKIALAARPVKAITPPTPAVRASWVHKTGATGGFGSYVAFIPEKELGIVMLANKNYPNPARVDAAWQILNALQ
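Enzyme, pH 7.0 phosphate. Compound titrations were pre-incubated with AmpC for 15 min at room temperature before nitrocefin (stock 800 uM) addition; product formation was recorded at 480 nm every 20 s for 4 min.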
* = called active by the depositor; [ ] = dose if it differs, or a comment. Potency is the fitted concentration of half-maximal effect. Not all compounds are listed; rates above refer to the full screens.

molecule	AmpC nodet inh
Cc1nnc(N2CCN(Cc3ccccc3)CC2)[nH]c1=O	-14.1%
c1cc2c(cc1Oc1nc(N3CCOCC3)nc(N3CCOCC3)n1)OCO2	-11.9%
Cc1onc(-c2ccccc2)c1C(=O)Nc1c(C)n(C)n(-c2ccccc2)c1=O	-10.2%
CC(=NC1CCCCC1)C1=C(O)c2ccccc2C1=O	30.0%
CCOC(=O)N1CCC(NS(=O)(=O)c2cc(Br)cnc2N)CC1	30.7%
Cc1ccc(NC(=O)CN(C)S(=O)(=O)c2cccc3nsnc23)cc1	-7.9%
C/C(Cl)=C/CCl	-9.8%
O=C(Cc1ccccc1)N1CCC(c2nc(-c3ccc(F)cc3)no2)CC1	96.8%
CC(C)(C#N)NC(=O)c1ccco1	13.7%
COc1ccc(C)cc1S(=O)(=O)N1CCC(C)CC1	14.4%
CCOC(=O)N1CCN(C(=O)c2c(-c3ccccc3)noc2C)CC1	25.9%
CCOc1ccc(Cc2nc(-c3nonc3N)no2)cc1OCC	4.5%
O=C(NC1CCCCC1)c1noc2c1CCCCC2	-5.3%
Cn1c(CCNC(=O)OC(C)(C)C)n[nH]c1=S	12.8%
CC(=O)Nc1nc(SCCCc2ccccc2)n[nH]1	-5.2%
Cc1occc1-c1nnc(SCC(=O)Nc2ccc3c(c2)OCO3)n1CC1CCCO1 (stereo unspecified)	8.9%
CSc1ccc(CNC2CN3CCC2CC3)cc1 (stereo unspecified)	8.2%
CCOc1cc(-c2noc(-c3cccnc3)n2)ccc1OC	99.2%
CCCS(=O)(=O)N1CCCC(C(=O)NCCN2CCC(Cc3ccccc3)CC2)C1 (stereo unspecified)	35.3%
Cc1ccc(C2NC(=O)NC3=C2CCc2ccccc23)cc1 (stereo unspecified)	3.0%
CCOC(=O)C1CCN(C(=O)Nc2ccc3oc(C)nc3c2)CC1	17.1%
Cc1cc(=O)n2[nH]c(C)c(-c3ccc(Cl)cc3)c2n1	-7.1%
O=C(O)c1oc2ccccc2c1CSc1ccccn1	-6.7%
CCc1nnc(NC(=O)C2CCC2)s1	-5.3%
COc1ccc(S(=O)(=O)N2CCOCC2)cc1C(=O)Nc1cc(C)on1	1.2%
CSc1nc(N2CCOCC2)c2ccccc2n1	-4.3%
CCc1nnc(NC(=O)CSc2nnnn2-c2cccc(C(=O)OC)c2)s1	-3.5%
CCOc1ccc(NC(=O)CN(C)c2nnnn2-c2ccccc2)cc1OCC	13.3%
Cc1cccc(N2C(=O)CC(=O)NC2=O)c1	-8.5%
Cc1cccc(C)c1NC(=O)N1CCC(n2cnc3ccccc32)CC1	9.4%
Cc1nn(-c2ccc(C(=O)O)cc2)c(N)c1-c1ccccc1	-11.0%
CCCS(=O)(=O)c1nnnn1-c1cccc(OC)c1	-8.5%
Cc1cncn1CCc1nc2c3ccccc3nc(=S)n2[nH]1	-2.6%
CN(C)C(CNC(=O)c1cccs1)c1cccnc1 (stereo unspecified)	9.7%
CCc1sc(C(=O)N2CCN(S(C)(=O)=O)CC2)cc1Br	-1.5%
CCOc1ccccc1NC(=O)CSc1nc2c(c(=O)n1C)SC(C)C2 (stereo unspecified)	34.9%
CCOc1cccc(-c2nc(C(N)=O)c3[nH]c(=O)n(-c4cccc(Cl)c4)c3n2)c1O	8.9%
FC(F)(F)c1nnc2sc(-c3ccccn3)nn12	-0.4%
CC12CCC3(CO)COC(c4ccccc4O1)C2C3 (stereo unspecified)	-4.4%
C=CCn1c(=O)c2ccccc2n2c(SC(C)C(=O)Nc3nc(-c4ccccc4)cs3)nnc12 (stereo unspecified)	55.4%
CCOC(=O)N1CCN(c2ccc(C(=O)c3cccc(F)c3)cc2)CC1	58.8%
CCCCCCn1cnc2c(c1=O)c1nc3ccccc3nc1n2Cc1cccs1	-2.1%
Cc1c(N=CC=Nc2c(C)n(C)n(-c3ccccc3)c2=O)c(=O)n(-c2ccccc2)n1C	2.3%
CC(=O)Nc1ccc(C(=O)CSc2nc3ccccc3n2CC(=O)N2CCCC2)cc1	13.4%
CCOC(=O)N1CCN(C(=O)Cn2ncc3ccccc32)CC1	-7.0%
COc1ccccc1C(=O)Nc1ccccn1	-5.8%
CCCN1C2=NS(=O)(=O)CCN2c2ccccc21	-14.4%
O=C(CCN1CCOCC1)Nc1ccc2c(c1)CCC2	8.1%
Cn1c(-n2c(CCN3C(=O)c4ccccc4C3=O)nc3ccccc3c2=O)nc2ccccc21	0.7%
COc1ccc(N2C(=O)C(Cl)=C(N3CCCC3)C2=O)cc1	5.7%
O=C1CC(c2cccnc2)c2cc3c(cc2N1)OCO3 (stereo unspecified)	2.4%
CCCc1nc(SCC(=O)Nc2cc(Cl)ccc2OC)c2c(=O)n(C)c(=O)n(C)c2n1	2.5%
Cc1ccc(S(=O)(=O)Nc2c(C)n(C)n(-c3ccccc3)c2=O)cc1C(=O)NCc1ccccn1	20.2%
CCOCC(=O)Nc1cccc(C(=O)OCC)c1	7.1%
Cc1ccccc1Cn1c(C(C)O)nc2ccccc21 (stereo unspecified)	25.2%
Cc1ccc(CC2CC(=O)N(c3ccc(Cl)cn3)C2=O)cc1 (stereo unspecified)	13.6%
COc1ccc(N(CC(=O)N2CCN(c3ccccc3)CC2)S(=O)(=O)c2c(C)noc2C)cc1	41.4%
CN(C)CCCNC(=O)c1ccc2[nH]c3ccccc3c2c1	6.0%
COc1ccccc1NC(=O)CN1CCN(CC(=O)Nc2ccc(F)cc2)CC1	51.1%
Cc1cnc(CNc2cc(-c3ccccc3C(F)(F)F)ncn2)cn1	35.2%

Reformatted with each value named: four of the compounds above
Cc1c(N=CC=Nc2c(C)n(C)n(-c3ccccc3)c2=O)c(=O)n(-c2ccccc2)n1C
  AmpC nodet inh = 2.3%
CN(C)CCCNC(=O)c1ccc2[nH]c3ccccc3c2c1
  AmpC nodet inh = 6.0%
Cn1c(-n2c(CCN3C(=O)c4ccccc4C3=O)nc3ccccc3c2=O)nc2ccccc21
  AmpC nodet inh = 0.7%
CCCCCCn1cnc2c(c1=O)c1nc3ccccc3nc1n2Cc1cccs1
  AmpC nodet inh = -2.1%

Next section.
molecule	AmpC nodet inh
COC(=O)CCC(=O)COc1ccc(OC)cc1C#N	-12.3%
COc1cccc(C(=O)N2CCN(Cc3ccc4c(c3)OCO4)CC2)c1OC	34.4%
CCCCN(C)S(=O)(=O)c1ccc(C(=O)Nc2nnc(-c3cccs3)o2)cc1	15.8µM*
O=C(NCCCN1CCCC1=O)c1ccc2c(=O)n(Cc3ccco3)c(=S)[nH]c2c1	37.6%
Nc1ccc(CCS(N)(=O)=O)cc1	-15.8%
CCCCNC(=O)NS(=O)(=O)c1ccc(C)cc1	-7.3%
CC1CCC2(CC1)NC(=O)c1ccccc1O2 (stereo unspecified)	4.4%
CCCc1[nH]nc2c1C(CCC)C(C#N)=C(N)O2 (stereo unspecified)	-16.7%
CCOc1ccc(C2CC(c3cccc(C)c3)n3ncnc3N2)cc1 (stereo unspecified)	83.4%
CS(=O)(=O)N1CCC[C@@]2(CCN(Cc3nccs3)C2)C1	32.8%
COc1cccc(-n2nnc3c(=O)n(CC(=O)OCc4ccccc4)cnc32)c1	-12.2%
O=C(NC[C@@H](O)CO)c1c(I)c(C(=O)NC[C@@H](O)CO)c(I)c(N(CCO)C(=O)CO)c1I	-6.2%[12.8 µM]
Cc1cc2n(n1)C(c1ccccc1Cl)Nc1ccccc1-2 (stereo unspecified)	2.5%
Cc1cc(NC(=O)c2cc(-c3ccco3)on2)no1	-15.4%
CCOCCCN(C(=O)CNC(=O)c1ccco1)C(C(=O)NC1CCCC1)c1ccccc1C (stereo unspecified)	16.8%
CS(=O)(=O)N(CC(=O)NC1CC2CCC1C2)c1cccc(C(F)(F)F)c1 (stereo unspecified)	28.9%
CCC(C)SCc1nc2ccccc2[nH]1 (stereo unspecified)	-11.7%
Cc1cnc(CNc2ncnc3ccc(-c4ccccc4C#N)cc23)cn1	0.0%
CCOC(=O)Nc1cccc(OCC(=O)Nc2ccccc2OC)c1	-7.1%
C(#Cc1ccc(C#CCN2CCOCC2)cc1)CN1CCOCC1	56.2%

Three structures already listed, ordered by count of non-hydrogen atoms, smallest number first:
molecule	AmpC nodet inh
CCCc1[nH]nc2c1C(CCC)C(C#N)=C(N)O2 (stereo unspecified)	-16.7%
Cc1cc2n(n1)C(c1ccccc1Cl)Nc1ccccc1-2 (stereo unspecified)	2.5%
COc1cccc(-n2nnc3c(=O)n(CC(=O)OCc4ccccc4)cnc32)c1	-12.2%

New compounds follow
molecule	AmpC nodet inh
Cc1cccc(OCC(=O)N2CCN(C(=O)c3cccs3)CC2)c1	30.7%
CCOC(=O)CCCNS(=O)(=O)c1c(C)ccc2nsnc12	0.5%
Cc1ccc(S(=O)(=O)N(c2ccccc2)C2CCS(=O)(=O)C2)cc1 (stereo unspecified)	8.2%
COc1cc2cc(C(c3nnnn3C3CCCC3)N3CCc4ccccc43)c(=O)[nH]c2cc1OC (stereo unspecified)	118.3%
CCC(C)N(CC(=O)NCc1ccc(OC)cc1)C(=O)c1csnn1 (stereo unspecified)	9.6%
O=S(=O)(NCc1ccco1)c1cccc(S(=O)(=O)N2CCOCC2)c1	-8.0%
COc1cccc(OCC(=O)N(Cc2nc(-c3ccc(Cl)cc3)no2)C(C)C)c1	64.4%
CC(C)(C)NC(=O)NC(=O)COC(=O)c1ccco1	3.7%
N#Cc1ccc2ccn(CC(=O)NC3CCCCCC3)c2c1	-15.6%
c1ccc2c(CC3NCCN3)cccc2c1	-1.9%[5.75 µM]
Cc1ccc(NC(=O)CCN2C(=O)c3ccncc3C2=O)cc1	8.7%
O=C(c1ccncc1)N1CCC2(CC1)CCN(c1ccc(-c3ccccc3)cc1)CC2	49.7%
CN=C1SC(CC(=O)Nc2cccc(C(F)(F)F)c2)C(=O)N1C (stereo unspecified)	27.3%
Cc1csc2nc(CNC(=O)CCC(=O)O)cn12	0.8%
COc1ccc(NC(=O)N2CC[C@@]3(CCCN(C(C)=O)C3)C2)cc1	0.5%
CCc1ccc(S(=O)(=O)NCc2cn3ccccc3n2)s1	12.2%
Nc1nc(SCc2ccccc2)ns1	-16.6%
O=S(=O)(NCCN1CCCC1)c1cccc2cccnc12	20.3%
CCc1c(C)nc2ncnn2c1N1CCCC(C(=O)NCc2ccc3c(c2)OCO3)C1 (stereo unspecified)	43.3%
CC(C)OC(=O)CSc1nc2ncc(Cl)cc2[nH]1	24.0%
COCCCNC(=O)CN1C(=O)c2ccccc2C1=O	-16.4%
O=C(CCCCCn1c(=S)[nH]c2cc3c(cc2c1=O)OCO3)N1CCN(C2CCCCC2)CC1	51.8%
Cc1cc(N)ccc1NC(=O)c1ccccc1	2.7%
CCCNS(=O)(=O)c1ccc(CCC(=O)NCc2ccc3c(c2)OCO3)cc1	2.7%
C[C@@H]1[C@H](O)[C@@H](C)/C=C/C=C/C=C/C=C/C=C/C=C/C=C/[C@H](O[C@@H]2O[C@H](C)[C@@H](O)[C@H](N)[C@@H]2O)C[C@@H]2O[C@](O)(C[C@@H](O)C[C@@H](O)[C@H](O)CC[C@@H](O)C[C@@H](O)CC(=O)O[C@H]1C)C[C@H](O)[C@H]2C(=O)O	152.3%
O=C(NCc1ccc2c(c1)OCO2)c1ccc(S(=O)(=O)NCC2CCCO2)cc1 (stereo unspecified)	7.5%
CCS(=O)(=O)NCCc1ccc(OC)c(OC)c1	0.1%
COc1ccccc1N1CC(C(=O)OC(C)C(=O)N2CCCc3ccccc32)CC1=O (stereo unspecified)	115.5%
Cn1cc(C(=O)NC2CCCCCC2)c(=O)c2cc(S(=O)(=O)N3CCCC3)ccc21	85.7%
CCCCOC(=O)Nc1ccc(OC)cc1S(=O)(=O)N1CCOCC1	0.8%
Cc1ccccc1-n1c(=O)c2ccccc2n2nnnc12	-0.1%
CCS(=O)(=O)N1CCC(C(=O)NCc2ccccn2)CC1	-10.0%
CCC(=O)N1CCN(c2ccccc2NC(=O)Cc2ccc(Cl)cc2)CC1	48.5%
Cc1oc(-c2ccccc2)[n+]([O-])c1C	-7.5%
Cc1ccc(Nc2cc(C)nc3ncnn23)c(Cl)c1	12.3%
O=C(CSc1ccc2nnc(-c3ccncc3)n2n1)Nc1ccc2c(c1)OCO2	2.8%
Cc1cc(C)c2c(c1)-c1cc(C)nn1C(c1ccc3c(c1)OCO3)N2 (stereo unspecified)	71.3%
CCOc1cc(CC(=O)N[C@@H](CC(C)C)c2ccccc2N2CCCCC2)ccc1C(=O)O	-3.5%[12.8 µM]
COC(=O)N1CCC2(CCCN(Cc3ccc(C#N)cc3)C2)CC1	11.8%
Cc1ccc(-c2ccc(SCC(=O)Nc3nonc3C)nn2)cc1	-4.6%
CCOC(=O)C1CCCN(c2c(N3CCC(N4CCCCC4)CC3)c(=O)c2=O)C1 (stereo unspecified)	3.98µM*[single pt active]
CCCC(=O)Nc1ccc(NC(=O)c2ccccn2)cn1	-9.5%
Cc1nc2ncccn2c1-c1csc(NCc2ccco2)n1	2.0%
O=C(CCNc1ccccc1)c1ccc2c(c1)OCO2	-12.2%
O=C(CSc1nc(-c2ccco2)cc(C(F)(F)F)n1)Nc1cccnc1	11.7%
O=S(=O)(c1ccc(Cl)c(Cl)c1)N1CCc2nc3ccccc3n2CC1	9.1%
Cc1ccc(S(=O)(=O)NC(CC(=O)N2CCc3ccccc32)c2ccco2)cc1 (stereo unspecified)	-11.0%

Compound activity as filed in PubChem BioAssay.
